Bfl-1 A1 inh: inhibitors of the anti-apoptotic protein A1, read as caspase activation. AID 2462. MEF A1-2A-BIM cells, Caspase-Glo 3/7 luminescence, 3 h; percent of clofoctol response, vehicle zero. 330,000 compounds, 0.066% hits. caspase activation, % (concentration not given with the values);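 active = over half of replicate activation scores above 10%, or exactly half above 10 with the replicate mean above 10; inconclusive = replicate mean below 10 yet half the replicates above 10; inactive = over half of replicates below 10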;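 also: wells of about 30 µL received 50 nL stock; many hits fall short of the cut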
Beta apoptosis: blocks beta cell apoptosis; 300,000 compounds, 0.8% hits; INS-1E cytokine-induced death, ATP luminescence, 48 h; percent of positive-control rescue, neutral wells zero; protection from apoptosis, % (concentration not given with the values);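 active = all replicates at 75% or more, or half of them and the mean; inconclusive = half reach 75% but not the mean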;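 also: 0% = cytokine-treated negative control wells and 100% = positive control rescue; higher means more ATP so stronger rescue from cytokine killing; wells of about 40 µL received 100 nL stock; the first replicate is given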
LANA-H2A inh: blocks KSHV LANA binding to histone H2A/H2B; cell-free LANA-H2A/H2B peptide, fluorescence polarization; Q9QR71; inhibition, % (concentration not given with the values); 320,000 compounds, 0.6% hits; AID 2629; in the data active = inhibition mostly above about 10%, no sharp cut-off; inactive = mostly below about 6.7%;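 also: stock transfer was 7.5 nL into about 10 µL; 0% = median of vehicle wells and 100% = median of positive control wells; one replicate is shown; the record names a cut of 25% in any replicate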
RanGTP-Imp inh: inhibitors of RanGTP-importin-beta interaction, primary screen, biochemical, FRET, CFP-Ran, YFP-importin-beta, homogeneous | cell-free CFP-Ran/YFP-importin-beta FRET ratio | inhibition, % (test concentration not listed) | 300,000 compounds, 1.1% hits | AID 2216;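 active = most replicates above 15%; inconclusive = exactly half above 15%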;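 also: 0% = DMSO wells and 100% = Ran loaded with GDP instead of GTP; wells of about 40 µL received 100 nL stock; the first replicate is given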
T cruzi repl: T. cruzi replication inhibition | T. cruzi beta-gal in NIH3T3, luminescence, 90 h | 300,000 compounds, 1.4% hits | inhibition, % (test concentration not listed) | AID 1885;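 active = mean inhibition across valid replicates above about 55%, limit read from the data; inconclusive = mean below that limit but half or more replicates reach it; inactive = mean below it, under half of replicates reach it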;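 also: signal also drops with host cell toxicity which is not excluded here; 0% = plate median of DMSO wells and 100% = zero luminescence signal; higher percent means less beta-gal luminescence so fewer parasites; stock transfer was 50 nL into about 50 µL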
MLL AF4-AF9 inh: MLL-AF4/AF9 protein interaction inhibition. AlphaScreen, biotin-AF4 peptide binding to FLAG-AF9. P42568. 350,000 compounds, 0.47% hits. inhibition, % at 10 µM;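 active = every replicate reaching a set inhibition limit, whatever the replicate mean, cut at about 25% in these data; inconclusive = mean inhibition reaches that limit but some replicates miss it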;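 also: 0% = plate neutral control median and 100% = total signal loss; the record names both 10 and 1 µM as test concentration; the first replicate is given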
Target sequence (P42568 whole entry, looked up): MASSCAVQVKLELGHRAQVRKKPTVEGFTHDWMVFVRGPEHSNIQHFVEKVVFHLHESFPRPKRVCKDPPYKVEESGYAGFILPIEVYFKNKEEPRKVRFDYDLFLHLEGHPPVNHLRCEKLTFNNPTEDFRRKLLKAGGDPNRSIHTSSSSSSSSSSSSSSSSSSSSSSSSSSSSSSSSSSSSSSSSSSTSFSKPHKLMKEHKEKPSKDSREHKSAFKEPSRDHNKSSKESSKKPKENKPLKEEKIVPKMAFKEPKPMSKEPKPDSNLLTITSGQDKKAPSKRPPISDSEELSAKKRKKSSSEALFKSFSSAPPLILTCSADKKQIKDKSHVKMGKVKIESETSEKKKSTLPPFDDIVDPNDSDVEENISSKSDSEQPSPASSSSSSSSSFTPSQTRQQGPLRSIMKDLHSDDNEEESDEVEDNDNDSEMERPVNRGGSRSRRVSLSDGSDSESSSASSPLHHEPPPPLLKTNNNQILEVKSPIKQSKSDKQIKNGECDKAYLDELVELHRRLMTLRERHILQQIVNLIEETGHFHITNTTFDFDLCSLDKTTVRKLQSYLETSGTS
Vif A3G: HIV-1 Vif–A3G interaction blockers – biochemical, TR-FRET, GST-Vif 1-94, biotin-A3G peptide, dose response retest, primary screen (AID 1117319). TR-FRET GST-Vif / biotin-A3G peptide binding; higher % means a stronger effect; test concentration not given here; strong numbers were not always called active. inhibition, %, or IC50 in µM where a hit was titrated. 260,000 compounds, 0.57% hits;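 active = above the screen mean plus three standard deviations and confirmed in dose response; inconclusive = results disagree or hit not tested in dose response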;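 also: Vif residues 1-94 fused to GST binding biotinylated APOBEC3G peptide 110-148; 0% = full assay without inhibitor and 100% = GST in place of GST-Vif; retest series ran down from 100 µM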
Calb FLC: affects C. albicans growth with fluconazole; 300,000 compounds, 0.57% hits; growth inhibition, % (test concentration not listed); C. albicans CaCi-2 (fluconazole-resistant clinical isolate) + fluconazole, Alamar Blue growth, 48 h; AID 1979;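 active = most replicates above 75%; inconclusive = exactly half above 75%; inactive = most below 75%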;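 also: all wells also contain fluconazole at 8 µg/ml as a sub-toxic cotreatment; 0% = median of DMSO wells and 100% = median of geldanamycin control wells; wells of about 8 µL received 7.5 nL stock; the first replicate is given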
The depositor's hits bear a star; ? = inconclusive; / = not tested or not shown; & = joins results of further samples.

SMILES	Bfl-1 A1 inh	Beta apoptosis	LANA-H2A inh	RanGTP-Imp inh	T cruzi repl	MLL AF4-AF9 inh	Vif A3G	Calb FLC
O=C(NC1CCCCCC1)c1cc(S(=O)(=O)N2CCC3(CC2)OCCO3)ccc1F	-1.0	/	2.7	?	/	-1.7	?	-8
Cc1cccc(NC(=O)CSCC(=O)Nc2cc(Cl)ccc2N2CCOCC2)c1	1.1	-1	1.4	-0.4	5	-0.2	3%	-1
CCOc1ccc(/C=C/C(=O)OCC(=O)NCCc2ccc(OCC)c(OCC)c2)cc1OC	-0.8	1	-1.7	-7.0	15	2.2	0%	-3
COc1ccc2[nH]c3nc(SCC(=O)NC4CC4)nnc3c2c1	-0.2	-2	-3.8	0.8	4	-12	/	0
Cc1[nH]n(-c2ncc(-c3ccccc3)s2)c(=O)c1C(c1ccc(Br)cc1)C(C#N)C#N (stereo not given)	0.5	-2	-3.1	7.0	-14	2.3	?	-3
O=C(CCNS(=O)(=O)c1cccc2nsnc12)NC1CCN(Cc2ccccc2)CC1	-0.2	1	8.6	-1.9	5	/	-3%	-3
c1cc2c(cn1)cnc1cscc12	0.0	-21	5.4	/	-2	-1.9	30%	-9
CC1=C(C)CC2C(C1)C(=O)c1ccc(Br)cc1S2(=O)=O (stereo not given)	-0.2	-6	-0.6	/	/	0.5	/	/
Cc1ccc(OCC(=O)N2CCN(C(=O)c3ccncc3)CC2)cc1	0.4	-4	1.7	-1.4	-11	-0.1	-4%	-13
COc1ccccc1-n1cccc1C=O	1.1	-7	1.4	-0.2	-7	-8.2	4%	8
O=C(CCNC(=O)C1CCN(S(=O)(=O)c2ccccc2)CC1)NCCc1cccc(F)c1	1.0	-5	6.6	1.8	4	-0.2	/	0
COc1ccccc1/C=C1/C(=O)N(c2cc(C)cc(C)c2)C(c2cccc([N+](=O)[O-])c2)S1(=O)=O (stereo not given)	0.7	-6	-1.5	6.0	3	/	/	-17
CC(C)S(=O)(=O)C1=NSC2=NC(=O)/C(=C\c3ccc(-c4ccccc4)o3)C(=N)N21	2.6	0	-5.5	?	-10	/	/	15
O=C(Nc1ccc(C(=O)Oc2ccccc2)c(O)c1)c1ccccc1	-6.7	-2	-2.1	-2.4	-23	0.7	-5%	-12
CCn1nc(C(=O)NNC(=O)c2ccccc2OCc2c(C)noc2C)c2ccccc2c1=O	0.5	-1	-4.7	/	/	-2.8	-3%	/
Cc1ccc(NC(=O)CCCC(=O)OC(C)C(=O)c2ccccc2)cc1 (stereo not given)	0.0	-3	5.1	2.9	-5	0.0	-7%	-3
COc1ccccc1Nc1nc(NCCO)nc(N)c1[N+](=O)[O-]	0.8	3	-2.3	3.9	-31	-0.2	3%	17
O=C(Nc1ccc(OC(=O)c2cccnc2)cc1)c1cccnc1	-0.7	-5	0.6	?	-19	/	0%	?
Cc1oc(-c2ccccc2Cl)nc1CS(=O)CC(=O)N1CCN(c2ccccc2)CC1 (stereo not given)	-0.3	0	2.2	0.0	8	2.8	/	0
O=C(NCCCCCCCCCNC(=O)C(F)(F)F)C(F)(F)F	1.5	-4	-4.0	-1.1	-7	/	4%	6
COc1ccc(N(C)C(=O)Nc2ccc3nsnc3c2)cc1	/	/	/	?	9	1.9	0%	-10
CCn1c(SCc2ccc(F)cc2)nc2c(c1=O)SCC2	-0.4	-1	-4.4	2.6	16	5.5	/	-12
Cc1ccc(Cc2c(C)nc3nc(SCC(=O)NCCCN4CCCCCC4)nn3c2C)cc1	-0.3	-4	0.8	-0.1	1	33*	/	-3
O=C(CCSCCC(=O)Nc1c(F)c(F)c(F)c(F)c1F)Nc1c(F)c(F)c(F)c(F)c1F	0.6	-11	3.2	2.5	13	-0.7	-9%	13
Cc1cccc(NC(=O)CCNS(=O)(=O)c2ccc3[nH]c(=O)oc3c2)c1	0.8	-2	0.1	6.6	4	0.9	/	1
CCCc1cc(C(=O)Nc2ccc(C)cc2)no1	-2.0	-1	-3.6	5.4	0	1.4	-2%	2
CC1(C)CC(=O)C(/C=N/c2ccccn2)=C(O)C1	0.1	-15	-3.5	5.0	0	/	-1%	-8
Cc1ccc(Cl)cc1NC(=O)COC(=O)Cn1cnc2c1c(=O)n(C)c(=O)n2C	-1.1	-5	1.6	0.4	1	-3.5	-12%	-4
CCOC(=O)C1=NN(c2ccc(C)cc2)CC1C(=O)OC (stereo not given)	0.5	0	3.3	10	-6	4.6	-9%	-15
O=C(CNC(=O)c1ccc(Cl)cc1)OCC(=O)N1CCCC1	0.5	-2	2.5	0.8	-16	-0.6	/	3
COc1ccccc1N1CC(C(=O)Nc2nc(C)cs2)CC1=O (stereo not given)	-0.8	5	2.7	/	/	0.1	0%	/
Cc1c(Nc2c3ccccc3nc3ccccc23)c(=O)n(-c2ccccc2)n1C	-0.1	-7	0.6	56*	12	-7.9	-3%	-5
Cn1c(N)c(C(=O)Nc2c(Cl)cccc2Cl)sc1=S	0.4	-12	-2.8	-2.8	13	6.3	-13%	30
CCCC(=O)NC(=S)Nc1cccc(NC(=O)c2ccccc2)c1	0.3	3	-1.2	-5.3	4	-1.6	-8%	2
Cc1ccsc1-c1nc(CN2C[C@@H](C)O[C@@H](C)C2)c(C)o1	0.0	-5	5.2	2.3	-7	-0.8	11%	-10
Cc1cc(C)c2c(=O)[nH]c(SCC(=O)NCCc3ccccc3)nc2n1	-0.6	1	-4.9	-0.7	2	/	0%	-2

Full records, looked up by structure. Values in the order: Bfl-1 A1 inh	Beta apoptosis	LANA-H2A inh	RanGTP-Imp inh	T cruzi repl	MLL AF4-AF9 inh	Vif A3G	Calb FLC
O=C(CNC(=O)c1ccc(Cl)cc1)OCC(=O)N1CCCC1 is listed with 0.5	-2	2.5	0.8	-16	-0.6	/	3
COc1ccccc1N1CC(C(=O)Nc2nc(C)cs2)CC1=O (stereo not given) is listed with -0.8	5	2.7	/	/	0.1	0%	/

Additional records follow.
SMILES	Bfl-1 A1 inh	Beta apoptosis	LANA-H2A inh	RanGTP-Imp inh	T cruzi repl	MLL AF4-AF9 inh	Vif A3G	Calb FLC
COc1ccc(CC(=O)NCCC2=CCCCC2)cc1	0.0	-3	2.0	1.1	-9	-1.8	/	8
CC1Cc2ccccc2N1CC(=O)NC(=O)NC1CCCC1 (stereo not given)	1.1	5	1.7	/	/	7.6	-4%	5
COc1ccc(C2=NS(=O)(=O)N(C)C(C(=O)N3CCN(C)CC3)=C2)cc1	1.8	-3	1.2	4.2	-15	2.3	/	-5
COc1ccc(CCN(C)C(=O)N2CCOCC2)cc1OC	0.2	-1	4.4	2.1	-8	/	6%	-7
Cc1ccc(S(=O)(=O)C2(C(=O)O)CCCC2)cc1C	-0.3	-2	-0.7	-0.7	-11	-1.4	14%	11
COC(=O)N/N=C\c1ccc(-c2cc(Cl)c(Cl)cc2Cl)o1	-1.6	12	-6.9	0.0	6	/	-6%	8
Cc1sc2nc(CN3CCOCC3)nc(NS(=O)(=O)c3ccccc3)c2c1C	1.2	-4	0.5	-2.7	-23	/	-5%	-6
COc1ccc(Cc2nnc(SCc3c(C)noc3C)n2C2CCCCC2)cc1OC	1.1	-6	1.7	-2.5	1	/	?	0
Cc1nn(C)cc1-c1n[nH]c(=S)n1-c1ccc(F)cc1	0.3	2	-5.4	2.6	-4	-11	6%	-3
COc1cccc(CN(CC(=O)NCC2CCCO2)C(=O)CCC(=O)Nc2cc(C)on2)c1 (stereo not given)	0.3	0	1.8	-1.0	2	/	0%	0
CCOc1ccc(C(=O)CSc2nnc(N)s2)cc1	-4.9	-4	1.6	-2.1	-2	/	5%	0
Cc1oc(C(C)(C)C)cc1C(=O)Nc1ccc2c(c1)OCCO2	0.1	-1	-2.1	4.2	3	/	3%	33
Cc1ccc(CCCOC(=O)C[N+]2(C)CCCC2)cc1	0.7	/	3.1	1.2	3	0.3	9%	-10
CSc1nc2sc3c(c2c(=O)n1C1CCCCC1)CCN(C)C3	0.5	1	-2.3	6.1	41	/	-3%	0
O=C(CSc1cc(Cl)ccc1Cl)NC1CCCC1	-1.1	0	-0.8	1.0	4	0.6	/	-8
O=C(NC(=S)Nn1cnnc1)c1cccc(Br)c1	-0.9	2	-5.2	2.8	3	/	20%	17
COc1cc2c(cc1OC)CN(CC(=O)Nc1ccc(C)cc1)CC2	0.7	-3	-0.3	7.7	-5	4.3	-5%	2
CC(C)CNS(=O)(=O)c1cc(C(=O)N2CC(C)OC(C)C2)c(Cl)cc1Cl (stereo not given)	-0.2	-18	-2.1	0.8	18	2.9	-6%	2
CCC1=C(OC(=O)N(CC)CC)N2C(=O)OC(=NCCOC)[C@]2(Cc2ccccc2)[C@H]2C1=CC[C@H]1C(=O)N(CC(=O)OC)C(=O)[C@H]12	0.5	-4	6.7	4.6	-3	5.0	1%	1
CC(C)c1nc(CNC(=O)c2ccc(OC3CCN(Cc4ccccn4)CC3)cc2)cs1	-0.8	-3	-2.1	0.9	-2	3.6	-1%	-10
CC(C)C(=O)Nc1nc(-c2ccc(S(=O)(=O)N3CCOCC3)cc2)cs1	0.8	-1	-3.0	1.0	-5	-0.7	/	22
O=C(CN1CCN(C(=O)c2ccccc2)CC1)Nc1ccccc1	-0.8	0	-0.3	5.9	-2	-1.7	/	-1
COC(=O)c1ccc(COC(=O)c2ccc(S(=O)(=O)N3CCC(C)CC3)cc2)o1	0.1	3	6.6	-2.3	-26	/	3%&13%	6
CCOC(=O)CNC(=O)CSc1nc2sc(C)c(C)c2c(=O)n1C	0.2	-2	0.4	-1.2	-4	/	-4%	-6

Quoted at random: 2 compounds from above
SMILES	Bfl-1 A1 inh	Beta apoptosis	LANA-H2A inh	RanGTP-Imp inh	T cruzi repl	MLL AF4-AF9 inh	Vif A3G	Calb FLC
O=C(NC(=S)Nn1cnnc1)c1cccc(Br)c1	-0.9	2	-5.2	2.8	3	/	20%	17
Cc1ccc(CCCOC(=O)C[N+]2(C)CCCC2)cc1	0.7	/	3.1	1.2	3	0.3	9%	-10

(next part)
SMILES	Bfl-1 A1 inh	Beta apoptosis	LANA-H2A inh	RanGTP-Imp inh	T cruzi repl	MLL AF4-AF9 inh	Vif A3G	Calb FLC
CC1C(=O)Nc2ccccc2N1C(=O)c1ccc(F)cc1F (stereo not given)	-1.1	-6	6.5	-0.1	0	-14	-8%	-6
COc1cccc(CN(C)CC(O)COC(c2ccccc2)c2ccccc2C)c1 (stereo not given)	-0.2	-7	1.4	0.5	42	8.6	/	-3
COc1ccc2ccccc2c1/C=N/n1cnnc1	0.6	-6	3.7	-0.9	-5	-2.4	15%	2
O=C(NCc1cccnc1)C(=O)Nc1nc2ccccc2s1	0.0	-2	3.3	0.9	-14	0.6	/	4
CCn1cc(C(=O)NCC2COc3ccccc3O2)c2cc(OC)c(OC)cc2c1=O (stereo not given)	0.1	4	0.1	?	17	/	5%	-1
O=C(C1CCC(=O)N(C2CCCC2)C1)N1CCN(c2ccccc2Cl)CC1 (stereo not given)	1.3	-4	-2.1	6.9	-19	-0.1	/	-10
Cc1cccc(C(=O)Nc2cc(=O)n(C)c(=O)n2C)c1	-0.3	/	-5.1	-2.2	-16	1.5	-1%	5
CCOC(=O)C1CCCN(Cc2cc(=O)oc3cc(C)ccc23)C1 (stereo not given)	-0.5	0	-4.2	-0.9	-2	-1.9	-3%	5
